UTI89 phage lysis = inhibition of K1F phage lysis, E. coli UTI89, bacterial capsule biogenesis inhibitors, alamar blue (AID 488966) | E. coli UTI89 K1F phage lysis, alamar blue, 2 h; higher % means a stronger effect | inhibition, % at 100 µM, or IC50 in µM where a hit was titrated | 340,000 compounds, 0.02% hits;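 active means phage lysis inhibition, versus mean bacterial control, above a set limit; inconclusive means no clear call, values can overlap the other calls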;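 further: capsule biogenesis inhibitors block K1F phage lysis so surviving cells raise fluorescence; higher fluorescence means more inhibition of phage lysis; actives were called in the ten point dose series up to 300 µM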
West Nile antiviral = inhibition of WNV-induced cytopathic effect – cell-based, CPE readout (AID 1621) | West Nile virus-infected cells, CPE inhibition; higher % means a stronger effect | CPE inhibition, % at 10 µM, or IC50 in µM where a hit was titrated | 290,000 compounds, 0.02% hits; in the data active means a potency from the dose series; inconclusive means CPE inhibition mostly from about 3.7% at the one dose, without a potency; inactive means the rest, 99 in 100 with CPE inhibition below about 2.2%; further: strong numbers were not always called active
M17LAP inhibition = P. falciparum M17LAP inhibitors, primary screen, biochemical, fluorogenic H-Leu-NHMec substrate, 1536-well (AID 1619) | recombinant M17LAP, H-Leu-NHMec fluorogenic kinetic assay; higher % means a stronger effect | one-dose inhibition, % at 30 µM; IC50 in µM for titrated hits | 220,000 compounds, 0.38% hits;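 active means compound inhibiting the enzyme by more than half at any dose during confirmatory dose-response retesting; inconclusive means strong single-dose inhibitors picked by rank but not retested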;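 further: plate controls were full reaction with DMSO carrier for no effect and no enzyme background for full effect; strong numbers were not always called active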
RSV CPE inhibition = RSV antiviral activity via CPE protection, HEp-2 cells, primary 10 µM value included (AID 2391) | HEp-2 cells, RSV-induced CPE inhibition; higher % means a stronger effect | CPE inhibition, % at 10 µM; hits with a dose series show IC50 in µM | 310,000 compounds, 0.13% hits; in the data active means a potency from the dose series; inconclusive means CPE inhibition mostly from about 23% at the one dose, without a potency; inactive means the rest, 99 in 100 with CPE inhibition below about 21%; further: strong numbers were not always called active
M1AAP inhibition = P. falciparum M1AAP inhibitors, biochemical, fluorogenic H-Leu-NHMec substrate, 1536-well (AID 1445) | recombinant M1AAP, H-Leu-NHMec fluorogenic kinetic assay; higher % means a stronger effect | 220,000 compounds, 0.42% hits | one-dose inhibition, % at 30 µM; IC50 in µM for titrated hits;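 active means primary inhibition above the hit cutoff, then over 50% inhibition at one or more dose response concentrations, cut at about 23% in these data, passing the limit was not always enough; inconclusive means conflicting primary data, or primary hits not chosen for dose response; inactive means low primary inhibition, or under 50% at every dose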;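 further: plate controls were DMSO full reaction for no effect and no enzyme background for full effect; strong numbers were not always called active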
T cell modulator = modulates CD8 T cell binding to vesicles; 2C CD8+ T cell-vesicle binding, flow cytometry; stronger effect = lower value; calls only at 7 µM; 330,000 compounds, 0.068% hits;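 active means response, share of CD8 T cells binding vesicles, and their 90th percentile fluorescence all below set limits, cut at about 80% in these data, passing the limit was not always enough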
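Incubation: binding step 1.5 h, 37 °C, antibody labelling 20 min, ice; system: murine 2C transgenic CD8+ T lymphocytes; technique: cytometric PE anti-B7-1 and Alexa647 anti-CD8 signals after 1% paraformaldehyde fixation; also added: QL9-charged Drosophila Ld/ICAM-1/B7-1 vesicles; control set: naked versus QL9-loaded vesicles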
T cell modulator vesicle-bound % = further read-out of T cell modulator, marked with its call; double positive events, %; measured here: CD8+ vesicle-bound cell fraction;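 binding gate set so that unloaded-vesicle control wells show 10% double positive cells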
Starred values were filed as active, the others as inactive; i = inactive; ? = inconclusive; . = not tested or not shown.

#1 OC(Cn1c2ccccc2c2ccccc21)C[n+]1cccc2ccccc21 (stereo not given)
#2 O=[N+]([O-])c1ccc(N2CCNCC2)cc1NCC1CCCO1 (stereo not given)
#3 CCCC(=O)NC(Oc1ccc(Cl)cc1Cl)C(Cl)(Cl)Cl (stereo not given)
#4 O=[N+]([O-])c1ccc(C2C3C(c4ccccc4)=NC4(CCCCC4)N32)cc1 (stereo not given)
#5 CC(C)CCC1(CN2CCCC2=O)C(=O)NC(=O)NC1=O
#6 CCCCC/C(=N\O)c1c[nH]c2ccccc12

| Assay by compound | 1 | 2 | 3 | 4 | 5 | 6 |
| --- | --- | --- | --- | --- | --- | --- |
| UTI89 phage lysis | i | 0.0% | 0.1% | 3.7% | 0.5% | -2.6% |
| West Nile antiviral | 0.1% | -0.3% | -0.1% | 0.0% | 0.8% | 0.4% |
| M17LAP inhibition | 10% | 18% | -6% | 2% | 12% | 4% |
| RSV CPE inhibition | -0.6% | -1.4% | 2.5% | 1.1% | 8.9% | 0.4% |
| M1AAP inhibition | 1% | 7% | 5% | 5% | 4% | 3% |
| T cell modulator | i | i | i | i | i | i |
| T cell modulator vesicle-bound % | 14 | 48 | 18 | 25 | 28 | 24 |

#7 CCCCCn1c(N)c(C(=O)NCc2cccs2)c2nc3ccccc3nc21
#8 O=C(NC1(C(F)(F)F)Oc2ccc(Cl)cc2O1)N1CCC2(CC1)OCCO2 (stereo not given)
#9 CCOC(=O)c1cncn1C(C)c1ccccc1 (stereo not given)
#10 C=C(C)CSc1nnc([C@@H](N)Cc2c[nH]c3ccccc23)o1
#11 CN1C(=O)CN=C(c2ccccc2)c2cc([N+](=O)[O-])ccc21
#12 O=P(C(c1ccc2c(c1)OCO2)N1CCOCC1)(N1CCOCC1)N1CCOCC1 (stereo not given)

| Assay by compound | 7 | 8 | 9 | 10 | 11 | 12 |
| --- | --- | --- | --- | --- | --- | --- |
| UTI89 phage lysis | . | 1.1% | 4.7% | 0.6% | . | 1.0% |
| West Nile antiviral | -0.2% | -0.8% | -0.3% | 0.2% | . | 0.3% |
| M17LAP inhibition | 5% | ? | 8% | 12% | -1% | -4% |
| RSV CPE inhibition | 5.6% | 18% | -1.0% | -0.5% | . | 0.9% |
| M1AAP inhibition | -1% | 12% | -3% | 13% | 0% | -2% |
| T cell modulator | i | i | i | i | . | i |
| T cell modulator vesicle-bound % | 16 | 65 | 32 | 38 | . | 14 |

Shown with bars between the fields: part of the list above
No. | Molecule | UTI89 phage lysis | West Nile antiviral | M17LAP inhibition | RSV CPE inhibition | M1AAP inhibition | T cell modulator | T cell modulator vesicle-bound %
1 | OC(Cn1c2ccccc2c2ccccc21)C[n+]1cccc2ccccc21 (stereo not given) | i | 0.1% | 10% | -0.6% | 1% | i | 14
2 | O=[N+]([O-])c1ccc(N2CCNCC2)cc1NCC1CCCO1 (stereo not given) | 0.0% | -0.3% | 18% | -1.4% | 7% | i | 48
3 | CCCC(=O)NC(Oc1ccc(Cl)cc1Cl)C(Cl)(Cl)Cl (stereo not given) | 0.1% | -0.1% | -6% | 2.5% | 5% | i | 18
4 | O=[N+]([O-])c1ccc(C2C3C(c4ccccc4)=NC4(CCCCC4)N32)cc1 (stereo not given) | 3.7% | 0.0% | 2% | 1.1% | 5% | i | 25
5 | CC(C)CCC1(CN2CCCC2=O)C(=O)NC(=O)NC1=O | 0.5% | 0.8% | 12% | 8.9% | 4% | i | 28
6 | CCCCC/C(=N\O)c1c[nH]c2ccccc12 | -2.6% | 0.4% | 4% | 0.4% | 3% | i | 24
7 | CCCCCn1c(N)c(C(=O)NCc2cccs2)c2nc3ccccc3nc21 | . | -0.2% | 5% | 5.6% | -1% | i | 16
8 | O=C(NC1(C(F)(F)F)Oc2ccc(Cl)cc2O1)N1CCC2(CC1)OCCO2 (stereo not given) | 1.1% | -0.8% | ? | 18% | 12% | i | 65

Screening results deposited in PubChem by several laboratories.

Only part of the results is shown; rates above refer to the full screens.
